From PubChem
GALR2 agonist: activates the human galanin receptor 2 | O43603 | GALR2-expressing cells, agonist activation read-out | activation, %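 (tested at 5 µM)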 | hit rate 0.48% among 140,000 | AID 803;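 active = above mean plus 3 SD of all compounds, about 5% in these data, not always enough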;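 also: 0% = vehicle buffer wells and 100% = reference agonist at full effect; tested in CHO reporter cells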
Target sequence (O43603 whole entry, looked up): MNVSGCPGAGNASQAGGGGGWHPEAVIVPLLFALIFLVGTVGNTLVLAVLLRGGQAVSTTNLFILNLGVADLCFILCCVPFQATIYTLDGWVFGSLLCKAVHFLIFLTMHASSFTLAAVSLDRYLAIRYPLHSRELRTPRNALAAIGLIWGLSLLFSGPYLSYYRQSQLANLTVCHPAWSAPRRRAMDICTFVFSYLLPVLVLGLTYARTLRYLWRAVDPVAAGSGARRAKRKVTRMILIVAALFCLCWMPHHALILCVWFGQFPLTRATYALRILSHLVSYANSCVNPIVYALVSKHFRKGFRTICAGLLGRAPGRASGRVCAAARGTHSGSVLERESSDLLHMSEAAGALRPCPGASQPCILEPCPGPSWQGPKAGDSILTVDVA
PKD1 kinase inh: inhibitors of human PKD1 kinase. Q15139. PKD1 kinase fluorescence polarization assay. inhibition, %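 (about 10 µM by stock and volumes)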. hit rate 0.056% among 200,000;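 active = inhibition of 50% or more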;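 also: controls were vehicle for no effect and a reference inhibitor for full effect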
Insulin prom inh: TRM-6 insulin promoter activity inhibition | inhibition, % at 2 µM | TRM-6 cells (human fetal islet line), insulin promoter-eGFP reporter, imaging; reporter expression induced with tamoxifen | hit rate 0.9% among 130,000;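 active = inhibition above the mean plus 3 SD, with well images judged a real hit on visual review, cut at about 60% in these data, passing the limit was not always enough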
RGS16-Gao: RGS16-Galphao interaction regulator (human); AID 1441; hit rate 0.38% among 220,000; bead-based flow cytometry RGS16-Galphao binding, fluorescence; actives lie on both sides; O15492+P09471; binding response (% of control), % at 10 µM;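 active = below 25% or above 175%, edge rows of some plates excepted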;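 also: Galphao activated by GDP with aluminum fluoride before binding; 100% = wells without compound and 0% = beads without RGS; some results beyond the cut were filed as inactive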
Target sequence (O15492 whole entry, looked up): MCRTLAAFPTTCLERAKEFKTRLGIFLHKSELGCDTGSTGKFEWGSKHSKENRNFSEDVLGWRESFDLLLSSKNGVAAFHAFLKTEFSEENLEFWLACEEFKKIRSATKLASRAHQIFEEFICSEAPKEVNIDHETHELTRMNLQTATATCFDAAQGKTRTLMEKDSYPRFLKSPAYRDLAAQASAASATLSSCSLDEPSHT
Target sequence (P09471 whole entry, looked up): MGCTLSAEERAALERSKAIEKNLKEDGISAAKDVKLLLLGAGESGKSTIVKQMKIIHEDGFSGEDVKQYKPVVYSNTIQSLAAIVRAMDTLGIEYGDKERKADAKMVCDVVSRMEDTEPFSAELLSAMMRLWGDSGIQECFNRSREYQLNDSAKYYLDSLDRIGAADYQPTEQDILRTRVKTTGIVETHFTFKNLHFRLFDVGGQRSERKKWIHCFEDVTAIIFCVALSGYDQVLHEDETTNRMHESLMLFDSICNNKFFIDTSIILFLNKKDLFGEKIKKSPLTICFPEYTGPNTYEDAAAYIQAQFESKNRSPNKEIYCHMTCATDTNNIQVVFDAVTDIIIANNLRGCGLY
HSV replic up: HSV replication enhancement; hit rate 0.005% among 220,000; maximum fold increase; AID 1956; HSV replication augmentation in cells, fold increase;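 active = peak rise of 1.5-fold or more in the series; tested in PC3 cells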;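 also: first round at 10 µM; read as green reporter fluorescence; hits show the peak of a series up to 25 µM; 1 = signal of infected wells without compound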
Insulin prom inh cell count: recorded beside Insulin prom inh, whose call it bears; normalized cell count, %; measured here: cell count, toxicity; reference of the scale not given here;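 cells exposed to compound for 48 h; stained nuclei by imaging scaled within each plate; lower means fewer cells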
HSV replic up primary fold: second read-out of HSV replic up, no call of its own (marks repeat the call); fold increase; compound at 10 µM; measured here: primary screen fold increase 10 uM; tested in PC3 cells;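 GFP signal in the first replicate; 1 = infected wells without compound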
* hit, by the source's call; i = inactive; . = no result given.

Fields: GALR2 agonist | PKD1 kinase inh | Insulin prom inh | Insulin prom inh cell count | RGS16-Gao | HSV replic up | HSV replic up primary fold
1) O=C(Cc1ccccc1)NCCc1cccc(Cl)c1
→ -0.4 | 2 | -23 | 110 | 87 | i | 1
2) Cc1occc1C(=O)N/N=C/c1ccc(OCc2ccccc2)cc1
→ . | . | . | . | 101 | i | 0.92
3) CCC(C)NS(=O)(=O)c1ccc(OCC(=O)Nc2ccc3c(c2)OCO3)cc1 (stereo unspecified)
→ -0.7 | 4 | -12 | 129 | 96 | i | 1.1
4) COc1ccc(S(=O)(=O)N2CCC(C(=O)N3CCCCC3)CC2)cc1Cl
→ -2.2 | -3 | -157 | 9 | 102 | i | 1
5) CC(NC(=O)c1cccc(Br)c1)c1ccccc1 (stereo unspecified)
→ . | -5 | . | . | 106 | i | 0.91
6) C/C(CCS(=O)(=O)c1ccccc1)=N/O
→ . | -5 | . | . | 112 | i | 0.99
7) Cc1c(C(=O)N2CCN(c3ccccc3)CC2)sc2ncnc(N3CCN(c4ccccc4)CC3)c12
→ -2.2 | 1 | -12 | 63 | . | . | .
8) O=S(Cc1ccc(Cl)cc1)c1ncc(CO)n1Cc1ccccc1 (stereo unspecified)
→ . | -7 | 21 | 114 | 97 | i | 1.3
9) CC1CC(C)CN(S(=O)(=O)c2ccc(C(=O)N(c3ccccn3)C3CCCCC3)cc2)C1 (stereo unspecified)
→ . | -4 | -9 | 89 | 100 | i | 1
10) COc1ccccc1CNC(=O)c1cc2c(=O)[nH]c3ccccc3c2n1C
→ . | -1 | . | . | 94 | i | 0.86
11) CC1=NCC(C)c2c1[nH]c1ccccc21 (stereo unspecified)
→ -1.5 | 8 | . | . | 98 | i | 1
12) Cc1ccc(S(=O)(=O)c2c(N)n(/N=C/c3ccco3)c3nc4ccccc4nc23)cc1C
→ 0.1 | -26 | -8 | 99 | 97 | . | .
13) NC(=S)NN=C1c2cc(S(=O)(=O)N3CCOCC3)ccc2-c2ccc(S(=O)(=O)N3CCOCC3)cc21
→ 0.7 | -6 | . | . | 103 | i | 0.86
14) Cc1cccc(OCC(O)Cn2c(-n3nc(C)cc3C)nc3c2c(=O)[nH]c(=O)n3C)c1 (stereo unspecified)
→ -1.5 | 5 | . | . | 108 | i | 1
15) COc1ccc(CNC(=O)C2CCC(CNc3c(N4CCCCC4)c(=O)c3=O)CC2)cc1 (stereo unspecified)
→ . | . | . | . | 14* | i | 0.93
16) CCN(CC)CCNC(=O)NC(=O)c1ccc(Cl)cc1
→ -0.6 | 3 | -17 | 139 | 112 | i | 0.95
17) Cc1ccc(N2CCN(S(=O)(=O)c3ccc(F)cc3)CC2)c(C)c1
→ 0.4 | -10 | . | . | 109 | i | 0.97
18) c1ccc(-c2ncc(-c3ccn[nH]3)s2)cc1
→ . | 2 | 55 | 159 | 109 | i | 0.94
19) CCC(/C=C1\Sc2ccc(OC)cc2N1CCO)=C\c1sc2ccc(OC)cc2[n+]1CCO
→ -0.8 | -9 | -42 | 104 | 98 | i | 1
20) COc1cc(OC)cc(C(=O)NC2CCN(CC(=O)Nc3cccc4ccccc34)CC2)c1
→ -1.5 | -7 | 17 | 92 | 99 | i | 0.93
21) CCN(/C=N/c1sc2c(c1C#N)CC(C)(C)NC2(C)C)CC
→ -2.8 | 3 | . | . | 97 | i | 0.87
22) O=C(CSc1nc2ccccc2o1)NCCOc1ccccc1
→ -1.3 | -3 | . | . | 99 | i | 0.99
23) COCCNc1c(-c2cc3ccc(C)c(C)c3[nH]c2=O)nc2ccccn12
→ . | 1 | . | . | 113 | i | 0.92
24) O=C(O)CSc1nc(-c2cccs2)cc(C(F)(F)F)n1
→ . | 9 | -17 | 90 | 67 | i | 0.97
25) CCN(CCNS(=O)(=O)c1ccc2[nH]c(=O)sc2c1)c1ccccc1
→ -1.9 | -8 | . | . | 100 | i | 1.1
26) S=c1nc2ccccc2c2nc(-c3cccnc3)[nH]n12
→ . | . | . | . | 99 | i | 0.92
27) CN=C1SC(CC(=O)Nc2ccc(F)cc2F)C(=O)N1/N=C(\C)c1cccc(OCC(=O)O)c1 (stereo unspecified)
→ . | . | . | . | 107 | i | 0.87
28) Cc1cc(C)n2c(SCC(=O)N(C)C3CCCCC3)nnc2n1
→ . | -2 | 15 | 122 | 103 | i | 0.88
29) COc1ccc(CN(C)C(C)C(=O)Nc2ccc(S(=O)(=O)N3CCCC3)cc2)c(OC)c1OC (stereo unspecified)
→ . | -8 | 7 | 75 | 98 | i | 0.95
30) CCOc1cc(CNC(CC)CO)ccc1OCC(=O)Nc1cccc(C(F)(F)F)c1 (stereo unspecified)
→ . | -5 | . | . | 105 | i | 0.89
31) N#Cc1ccc(S(=O)(=O)N2CCCN(c3ccc(C(F)(F)F)cn3)CC2)cc1
→ . | . | . | . | 99 | i | 0.92
32) Cc1nc(Nc2nc3ccccc3o2)nc(C)c1C
→ . | 0 | . | . | 102 | i | 0.9
33) Cc1ccc(S(=O)(=O)CCc2nnc(N)s2)cc1
→ -2.1 | -1 | 19 | 90 | 99 | i | 0.99
34) Cc1ccc(N=C2NC(=O)/C(=C/C=C/c3ccco3)S2)cc1C
→ -0.9 | -11 | . | . | 103 | . | .
35) O=C(CN1CCCC1)Nc1cc(F)ccc1F
→ . | 5 | . | . | 98 | i | 0.93
36) Cc1ccc(S(=O)(=O)N2CCCC(C(=O)NCCC(C)C)C2)cc1 (stereo unspecified)
→ . | 7 | . | . | 97 | i | 0.97
37) Cc1ccccc1OCC(=O)NCCN1CCCC1
→ -2.6 | 3 | . | . | 89 | i | 0.99
38) CCOc1ccccc1Nc1nc(-c2sc(NC(=O)c3cccc(Cl)c3)nc2C)cs1
→ -2.8 | -14 | . | . | 76 | i | 0.91
39) COc1ccc(CNCC(=O)Nc2cc(C)nn2-c2nc(C)cc(C)n2)cc1OC
→ . | . | . | . | 101 | i | 1
40) COc1ccc(OCC(N)=O)cc1
→ . | 2 | . | . | 93 | i | 1.1
41) CN1CCCC2(CCCN(Cc3nc(Cc4cccc(C(F)(F)F)c4)no3)C2)C1 (stereo unspecified)
→ . | -6 | . | . | 102 | i | 0.97
42) CC(=O)Oc1ccc2c(C)cc(=O)[nH]c2c1
→ -2.2 | -7 | . | . | 100 | i | 1.1
43) CCC1CCc2c(n(C)c3ccccc3c2=O)O1 (stereo unspecified)
→ -0.2 | 3 | . | . | 102 | i | 1
44) CC(=O)NCc1cn2c(C)csc2n1
→ -0.9 | -3 | . | . | 98 | i | 0.98
45) CN1CCOC(=O)/C1=N/Nc1cc(Cl)ccc1Cl
→ . | -3 | . | . | 102 | i | 1
46) Cc1cccc2c(CCNC(=O)c3ccc([N+](=O)[O-])cc3)c[nH]c12
→ -1.2 | -4 | . | . | 93 | i | 0.94
47) Cc1nc(N2CCCC2C(=O)O)c2oc3ccccc3c2n1 (stereo unspecified)
→ -0.2 | 7 | 0 | 127 | 100 | i | 0.96
48) CCOCCCn1c(=S)[nH]c2cc(C(=O)N3CCC(C(N)=O)(N4CCCCC4)CC3)ccc2c1=O
→ . | -2 | 7 | 116 | 101 | i | 0.88
49) NS(=O)(=O)c1cccc(NC(=S)NC(=O)C23CC4CC(CC(C4)C2)C3)c1
→ -1.3 | -4 | 29 | 89 | 102 | i | 0.91
50) COCCn1c(SCC(=O)Nc2nc3ccccc3s2)nnc1-c1ccoc1C
→ -1.5 | -8 | -10 | 104 | 105 | i | 1.1
51) COc1ccccc1NC(=O)c1sc2ncn(Cc3cccc(C)c3)c(=O)c2c1C
→ -0.2 | -2 | -25 | 136 | 61 | i | 0.88
52) O=C(c1cc(-c2cccs2)on1)N1CCN(c2ccc(F)cc2)CC1
→ -0.9 | -1 | 3 | 104 | 107 | i | 0.88
53) COc1ccc(-c2nnc(SCc3ccccc3F)o2)cc1OC
→ -0.2 | 7 | 19 | 71 | 100 | i | 0.94
54) COC(=O)c1[nH]c2cccc(OC)c2c1NC(=O)CCN1CCN(c2ccccc2F)CC1
→ -1.4 | -11 | 23 | 173 | 100 | i | 0.9
55) OC(CNC1CCCc2ccccc21)COc1ccc2ccccc2c1 (stereo unspecified)
→ 0.1 | 0 | 27 | 86 | 92 | i | 0.86
56) O=C(Cc1ccccc1)c1c[nH]c(C(=O)NCc2ccncc2)c1
→ . | 0 | 0 | 78 | 108 | i | 0.86
57) COc1cc(/C=N/NC(=O)c2ccc(O)cc2)ccc1Oc1ccc([N+](=O)[O-])cn1
→ -1.2 | -1 | . | . | 120 | i | 0.92
58) CC(C)NS(=O)(=O)c1ccc(OCC(=O)NCC2CCCO2)c(Cl)c1 (stereo unspecified)
→ -0.5 | -3 | 15 | 50 | 97 | i | 1.2
59) CCOc1ccc(NS(=O)(=O)c2ccc3c(c2)N(C(C)=O)CC3)cc1
→ . | -5 | . | . | 108 | i | 0.69
60) Cc1ccc(OCCCC(=O)Nc2ccc(S(=O)(=O)Nc3cc(C)on3)cc2)cc1
→ -0.1 | 1 | -15 | 135 | 106 | i | 0.99

Exported as tab-separated lines: three of the compounds above
item	SMILES	GALR2 agonist	PKD1 kinase inh	Insulin prom inh	Insulin prom inh cell count	RGS16-Gao	HSV replic up	HSV replic up primary fold
53	COc1ccc(-c2nnc(SCc3ccccc3F)o2)cc1OC	-0.2	7	19	71	100	i	0.94
30	CCOc1cc(CNC(CC)CO)ccc1OCC(=O)Nc1cccc(C(F)(F)F)c1 (stereo unspecified)	.	-5	.	.	105	i	0.89
11	CC1=NCC(C)c2c1[nH]c1ccccc21 (stereo unspecified)	-1.5	8	.	.	98	i	1

Next structures follow.
Fields: GALR2 agonist | PKD1 kinase inh | Insulin prom inh | Insulin prom inh cell count | RGS16-Gao | HSV replic up | HSV replic up primary fold
61) C/C(=N/NC(=O)c1ccc(Br)o1)c1ccc(C)o1
→ 0.1 | 6 | . | . | 104 | i | 0.87
62) COc1ccc(N2C(=O)C3ON(C4SC(=S)N(C)C4(C)C)C(c4ccc(Cl)cc4)C3C2=O)cc1 (stereo unspecified)
→ -0.9 | 1 | -37 | 115 | 99 | i | 1.1
63) N=c1c(-c2nc3ccccc3[nH]2)cc(C(=O)c2cccs2)nn1-c1ccccc1
→ -2.8 | -6 | 33 | 109 | 94 | i | 0.86
64) O=C(O)CCC(=O)N1N=C(c2ccco2)CC1c1cccs1 (stereo unspecified)
→ -1.0 | -5 | 26 | 116 | 99 | i | 1.1
65) COc1cc(/C=C/C(=O)Nc2ccc(C(C)=O)cc2)cc(OC)c1OC
→ -1.0 | -8 | -18 | 46 | 117 | i | 0.94
66) CCOC(=O)c1c(-c2ccccc2)csc1NC(=S)N(CC)CC
→ 0.0 | 0 | . | . | 98 | i | 1
67) COc1ccc(N2CCC(CNC(=O)Nc3ccc(OC)cc3OC)C2)cc1 (stereo unspecified)
→ 0.2 | 0 | . | . | 92 | . | .
68) COc1cccc(Nc2nc(=O)[nH]nc2C)c1
→ -0.4 | 0 | -21 | 86 | 104 | i | 0.78
69) CN(C)CCCN(C(=O)c1ccco1)c1nc2c(F)cccc2s1
→ . | 0 | . | . | 102 | i | 0.97
70) COc1ccc(C)cc1NC(=O)COC(C)=O
→ -1.7 | -3 | -15 | 109 | 100 | i | 0.94
71) NC1=NC(c2ccc(Cl)cc2)N(c2ccc(S(N)(=O)=O)cc2)C(N)=N1 (stereo unspecified)
→ . | . | . | . | 101 | i | 0.99
72) CCC(O)(C#CCN1CCCCC1)CC
→ -2.6 | 9 | 20 | 119 | 98 | i | 0.92
73) COc1ccc(N(CC(=O)N/N=C/c2ccco2)S(=O)(=O)c2ccccc2)cc1Cl
→ . | . | . | . | 102 | i | 0.86
74) CCOC(=O)C1CCCN(C(=O)c2ccccc2[N+](=O)[O-])C1 (stereo unspecified)
→ . | -7 | . | . | 100 | i | 1.1
75) S=C(N=Nc1ccccc1)NNc1ccccc1
→ -2.3 | -2 | 55 | 87 | 56 | i | 0.99
76) Cn1ncc(Cl)c1C(=O)N1CCCc2ccccc21
→ -2.0 | 2 | -32 | 117 | 148 | i | 1.2
77) Cc1ccc(S(=O)(=O)N2CCCC(c3nc(-c4ccc(C)o4)no3)C2)cc1 (stereo unspecified)
→ -0.6 | -2 | 21 | 93 | 98 | i | 0.93
78) CC(=O)Nc1cccc(/C(C)=N/NC(=O)c2cccc(S(=O)(=O)N3CCOCC3)c2)c1
→ . | -7 | . | . | 99 | i | 0.83
79) Cc1ccc2[nH]c(C)c(CCNC(=O)c3c(N)no[n+]3[O-])c2c1
→ . | -2 | 18 | 50 | 99 | i | 0.96
80) COc1ccc(Cn2nnnc2CN2CCN(c3ccc(OC)cc3)CC2)cc1
→ . | -1 | . | . | 102 | i | 0.98

Entries of single compounds, looked up by structure. Screens in order: GALR2 agonist | PKD1 kinase inh | Insulin prom inh | Insulin prom inh cell count | RGS16-Gao | HSV replic up | HSV replic up primary fold
`COc1ccc(CNC(=O)C2CCC(CNc3c(N4CCCCC4)c(=O)c3=O)CC2)cc1` (stereo unspecified) as listed: . | . | . | . | 14* | i | 0.93
`Cc1ccc(S(=O)(=O)N2CCCC(C(=O)NCCC(C)C)C2)cc1` (stereo unspecified) as listed: . | 7 | . | . | 97 | i | 0.97
